Source: PubChem
PrP 5UTR inh: suppresses PrP 5' UTR mRNA reporter expression; cell-based PrP 5' UTR mRNA reporter, plate reader; inhibition, % (concentration not given with the values); hit rate 0.35% among 340,000;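 active means every replicate at 50% or more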;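 further: 0 = median of the neutral control wells; tested in H4 reporter cells; numbers are from one replicate; inactives centre near -14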
RN4220 kill: kills Staphylococcus aureus RN4220; AID 1259311; S. aureus RN4220 growth, OD600, 16 h; hit rate 0.33% among 330,000; inhibition, % (concentration not given with the values);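 active means z-score of -3 or lower and OD600 up to 0.18 on both plates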;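 further: plate controls were untreated cells for no effect and reference antibiotic for full effect; stock transfer was 100 nL into about 80 µL; one replicate is shown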
Mtb hypoxia inh: reduces hypoxia-regulated biosensor signal in M. tuberculosis | M. tuberculosis hypoxia-regulated fluorescent reporter, fluorescence | fluorescence inhibition, % (no concentration beside the values) | hit rate 0.1% among 300,000 | AID 1159583;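 active means 35 to 45% if threefold the growth effect, above 45% if 1.5-fold the growth effect; inactive means the rest, general growth blockers included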;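 further: wells of about 50 µL received 100 nL stock; 0% = vehicle wells and 100% = reference inhibitor wells; whole bacteria with a GFP reporter of the hypoxia response; strong numbers were not always called active; many hits fall short of the cut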
Sa ugtP lethal: compounds lethal to S. aureus RN4220 ugtP deletion mutant. hit rate 0.54% among 330,000. OD600 growth, 16 h; some inactives read as strong as hits. growth inhibition, % (no concentration beside the values);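 active means z-score under -3 and OD600 up to 0.15 on both plates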;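 further: plate controls were untreated wells for no effect and antibiotic for full effect; wells of about 80 µL received 100 nL stock; the first replicate is given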
Autofluor counter: compound fluorescence in toxin protease inhibitor counterscreen; compound autofluorescence counterscreen, microsphere flow cytometry; active compounds read high; fluorescence intensity (concentration not given with the values); hit rate 3.1% among 360,000; AID 624483;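 active means at least 3 SD above the mean of all compounds, about 16000 in these data; inconclusive means too few beads counted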;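 further: 100 nL of 1 mM stock went into each well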
BJeLR viability: BJeLR cell viability loss; BJeLR (HRASV12) viability, CellTiter-Glo ATP luminescence, 48 h; reference of the scale not given here; inhibition, % (concentration not given with the values); hit rate 0.17% among 300,000;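 active means replicate mean above 50%; inconclusive means above 50% but judged a plate artefact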;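 further: 50 nL library stock added to about 25 µL; numbers are from one replicate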
Mtb hypoxia inh growth: second read-out of Mtb hypoxia inh, no call of its own (marks repeat the call); growth inhibition, %; measured here: M. tuberculosis growth (absorbance);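 0% = vehicle and 100% = reference antibiotic; read after six days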
The depositor's hits bear a star; u = inconclusive; x = not tested or not shown.

SMILES	PrP 5UTR inh	RN4220 kill	Mtb hypoxia inh	Mtb hypoxia inh growth	Sa ugtP lethal	Autofluor counter	BJeLR viability
Cc1nc2ccccc2n1CC(=O)OCC(=O)Nc1ccc2c(c1)OCCO2	-7	-3.4	x	x	1	3261	6
COc1nc(N)c(S(=O)(=O)c2ccccc2C)cc1C#N	-4	1.6	3	5	5	19846*	4
O=S(=O)(NCCCN1CCOCC1)c1ccc(Cl)s1	-1	5.6	9	10	3	5168	11
Cc1c(C)c(C)c(S(=O)(=O)NCCC(=O)N2CCN(Cc3ccc(C#N)cc3)CC2)c(C)c1C	-10	12	12	2	0	3404	x
Cc1ccsc1C(=O)Nc1ccccc1N1CCOCC1	-6	9.5	11	8	4	18871*	0
O=c1c([N+](=O)[O-])cccn1Cc1ccc(F)cc1Cl	-14	6.7	7	10	9	4380	-18
Cc1cccc2cc(CN(CC(C)C)S(=O)(=O)c3ccccc3)c(=O)[nH]c12	-6	5.2	0	-5	-3	u	-4
CCOC(=O)N1CCN(C(=O)C(=O)N/N=C/c2ccc(OC)cc2OC)CC1	-18	x	x	x	x	5320	-4
O=C(Cn1cc(C(=O)c2cccs2)c2ccccc21)NCc1cccs1	-16	6.6	5	-1	-9	6739	-8
CCN(CC(=O)Nc1c(F)cccc1F)C(=O)C1COc2ccccc2O1 (configuration not stated)	0	5.8	22	-3	6	2951	x
CCOCCCNC(=O)C1CCCN1C(=O)NC1CCCCC1 (configuration not stated)	-3	4.5	13	8	3	9694	-19
O=C(c1cc(S(=O)(=O)N2CCC3(CC2)OCCO3)ccc1F)N1CCC2(CC1)OCCO2	1	0.7	11	4	-1	4489	-4
COc1ccc(-c2cn3c(C)c(C(=O)NC(C)(C)C)sc3n2)cc1	-64	-3.0	14	12	-1	6765	0
CN(CC(=O)Nc1ccccc1C(F)(F)F)C(=O)COc1cccnc1[N+](=O)[O-]	-19	1.0	5	-9	10	4015	16
Cc1ccc(S(=O)(=O)NCCCn2ccnc2)cc1C(=O)NC(C)C	-5	-1.1	-3	-2	-3	3097	-1
CC(C)(C)c1ccccc1NC(=O)CN1C(=O)NC(Cc2ccccc2)C1=O (configuration not stated)	-7	2.2	-1	17	-2	u	0
Cc1ccc(NC(=O)CCC(=O)NNC(=O)COc2ccc([N+](=O)[O-])cc2)c(C)c1	-18	4.7	3	0	-1	5817	x
CC(C)(C)C(=O)CNS(=O)(=O)c1ccc(S(=O)(=O)NC2CCCC2)cc1	-10	1.3	-7	3	-7	8777	3
Nc1nc(Br)c2ccccc2c1-c1ccc(F)cc1	1	-2.9	5	7	-11	11007	11
O=C(CCC1CCCC1)Nc1cccc(Cc2ccncc2)c1	-7	-7.0	-13	3	-2	4379	-5
CCOC(=O)c1ccc(NC(=O)Nc2c(C)n(C)n(-c3ccccc3)c2=O)cc1	-13	-0.1	2	-2	0	5938	-3
COc1cccc(C2CC(c3ccccc3)n3ncnc3N2)c1 (configuration not stated)	12	0.1	x	x	-4	6300	-8
Cc1ccc(C(C)C)cc1OCC(=O)Nc1ccccc1N1CCCC1	-5	0.4	-4	-5	0	4886	-2
COc1ccc(S(=O)(=O)N2CN3CCN(C3)C2)cc1	-4	1.1	-7	3	0	3669	-9
CN(Cc1cnn(C)c1)Cc1nc(-c2ccc(Cl)cc2)no1	-21	7.0	17	14	4	3817	-4
Cc1ccccc1C(=O)NC(=S)Nc1cccc(NC(=O)C(C)C)c1	-52	4.3	10	9	2	2042	-2
CC(C)(C)NC(=O)COc1ccc(S(=O)(=O)N2CCCC2)cc1	-22	5.2	3	-9	14	3649	-8
Cn1ncc([N+](=O)[O-])c1C(=O)NN=Cc1cccc([N+](=O)[O-])c1	x	-1.6	1	4	7	x	x
CCOc1ccc(NS(=O)(=O)c2ccc(-c3ccc(=O)[nH]n3)o2)cc1	-3	1.6	-3	-4	8	4365	7
Cc1cc(C)c2nc(NNC(=O)c3cc(-c4cccs4)nc4ccccc34)sc2c1	-9	21	0	-8	21	5934	5
COc1cc(C2NC(=O)NC(C)=C2[N+](=O)[O-])cc(OC)c1OC (configuration not stated)	-10	3.9	10	-1	12	4544	10
COC(=O)c1cc2c(ccn2-c2ccc(F)cc2)n1Cc1ccc(C#N)cc1	-21	-0.7	8	5	13	2440	-4
CCOc1ccccc1NC(=S)NCC1CCCO1 (configuration not stated)	-14	7.5	2	2	-3	2617	-17
CCOC(=O)NN=Cc1c(F)c(F)c(F)c(F)c1F	x	3.2	-3	4	1	x	x
Cc1cc(C(=O)N2CCN(c3ccccc3Cl)CC2)c(C)o1	-25	1.3	-1	0	3	3680	x
O=C(c1ccc(S(=O)(=O)N2CCC(c3nc4ccccc4s3)CC2)cc1)N1CCCCC1	-13	3.3	-3	-5	-1	5121	x
O=C1CC(C2CCCO2)C(=O)N1c1ccc(Cl)c(Cl)c1 (configuration not stated)	36	4.8	-7	-1	4	4248	16
O=C(NCC1CCCO1)c1cc2c(=O)[nH]c3ccccc3c2s1 (configuration not stated)	-41	6.6	11	14	8	4241	x
O=S(=O)(Cc1ccc(Cl)cc1)NCc1cccnc1	x	1.3	4	14	1	x	-4
COc1ccccc1C(=O)O[C@H]1[C@H](Cc2ccccc2)NS(=O)(=O)[C@H]2C[C@@H]3C=C[C@]12O3	-3	9.9	-13	9	7	3984	x
O=C(CSc1nnc(CNC(=O)c2ccco2)o1)Nc1ccc(Cl)cc1	-64	1.5	-6	0	0	5249	1
CCCCn1c(N)c(N(CCOC)C(=O)c2oc3ccc(OC)cc3c2C)c(=O)[nH]c1=O	-16	1.9	2	-3	4	5918	-3
N#CC1CC(c2ccc([N+](=O)[O-])cc2)=NN1c1ccc([N+](=O)[O-])cc1 (configuration not stated)	-19	13	3	5	-7	4278	-11
CC1CCCCC1NC(=S)NC(=O)c1cccs1 (configuration not stated)	-31	2.7	6	14	-7	4684	-1
O=C(NCc1ccc2c(c1)OCO2)C(=O)NCC1OCCN1S(=O)(=O)c1ccc(Br)cc1 (configuration not stated)	-10	2.3	-4	6	5	6060	9
CC(C)c1cc(C(=O)NC2CCCc3c2cnn3-c2ccccc2F)no1 (configuration not stated)	11	-0.9	1	-5	6	5035	7
CCCCN(C)CCNC(=O)c1cc2c(=O)[nH]c3ccccc3c2n1C	-14	-1.0	10	9	12	3680	6
O=C(C1CC=CCC1)N1CCC(CO)(Cc2ccc(Cl)cc2)CC1 (configuration not stated)	-10	2.0	8	4	6	3395	0

Retrieved by compound from above, 6 records:
SMILES	PrP 5UTR inh	RN4220 kill	Mtb hypoxia inh	Mtb hypoxia inh growth	Sa ugtP lethal	Autofluor counter	BJeLR viability
O=C(C1CC=CCC1)N1CCC(CO)(Cc2ccc(Cl)cc2)CC1 (configuration not stated)	-10	2.0	8	4	6	3395	0
CC1CCCCC1NC(=S)NC(=O)c1cccs1 (configuration not stated)	-31	2.7	6	14	-7	4684	-1
CCCCN(C)CCNC(=O)c1cc2c(=O)[nH]c3ccccc3c2n1C	-14	-1.0	10	9	12	3680	6
O=C(NCC1CCCO1)c1cc2c(=O)[nH]c3ccccc3c2s1 (configuration not stated)	-41	6.6	11	14	8	4241	x
O=C(NCc1ccc2c(c1)OCO2)C(=O)NCC1OCCN1S(=O)(=O)c1ccc(Br)cc1 (configuration not stated)	-10	2.3	-4	6	5	6060	9
N#CC1CC(c2ccc([N+](=O)[O-])cc2)=NN1c1ccc([N+](=O)[O-])cc1 (configuration not stated)	-19	13	3	5	-7	4278	-11

Remaining list, next part:
SMILES	PrP 5UTR inh	RN4220 kill	Mtb hypoxia inh	Mtb hypoxia inh growth	Sa ugtP lethal	Autofluor counter	BJeLR viability
CCC(Sc1nc2ccc(C)cc2[nH]1)C(=O)O (configuration not stated)	-24	5.5	-4	7	-1	4144	1
Cc1occc1C(=O)NN=Cc1ccc(-c2ccccc2)cc1	x	5.5	4	17	-9	x	x
O=S(=O)(NCCc1ccc2c(c1)OCCO2)c1cccs1	-25	1.5	9	6	6	9187	-1
O=CN1N=C(c2ccccc2)CC1c1ccccc1[N+](=O)[O-] (configuration not stated)	-16	5.4	14	7	5	2498	-5
COc1cccc(S(=O)(=O)Nc2ccc(C(=O)N3CCCCCC3)cc2)c1	-18	4.7	8	7	-1	3405	-4
C=CCC1[C@H](C)[C@H]2[C@@H]3CC[C@@H](C3)[C@H]2CN1S(=O)(=O)c1ccc(C)cc1 (some centres not stated)	-39	3.6	7	5	44	2911	x
O=C(NCCN1CCCCC1)/C(=C/c1ccco1)NC(=O)c1ccccc1	11	-2.6	-1	2	5	3137	8
C=CCOc1ccnc(-c2ccccc2)n1	-11	6.2	-5	-7	0	3879	-3
Cc1cc(/C=C2\SC(=S)NC2=O)c(C)n1C1CC1	-37	15	3	9	-11	20502*	-6
CC1CCN(C(=O)Cn2c(=O)n(Cc3ccc4c(c3)OCO4)c(=O)c3ccccc32)CC1	-14	-0.7	x	x	-8	3674	12
CCNc1c(NC(=O)C2CCC(C)CC2)c(=O)oc2ccccc12 (configuration not stated)	-11	1.4	5	6	4	2920	-1
O=C(CN1CCCC1c1ccc2c(c1)OCCO2)NC(=O)Nc1ccccc1F (configuration not stated)	-22	-0.5	1	0	5	x	x
CCOC(=O)c1sc(NC(=O)Nc2ccc(F)cc2)nc1C	-65	6.0	13	6	0	2089	-8
COc1ccc(CCC(=O)NCCc2ccc(OC)c(OC)c2)cc1	-14	4.3	15	3	3	4029	-3
CCOC(=O)Cn1nc(C)c(NC(=O)COc2ccc([N+](=O)[O-])c(C)c2)c1C	-13	1.7	-9	1	-6	3185	-6
Cc1ccccc1C(=O)N1CCC(C(=O)NCc2ccc(Cl)cc2)CC1	-35	1.2	3	-4	9	4246	12
C=CCN1C(=O)/C(=C/c2ccc(Br)s2)C(=O)NC1=S	-57	7.7	11	7	11	x	-3
Cc1ccc2oc(-c3ccccc3)nc2c1	-86	6.5	-2	1	-9	u	5
CCCOc1ccccc1C1CC(=O)Nc2cc3c(cc21)OCO3 (configuration not stated)	-21	-8.1	x	x	-6	3538	22
CCN1CCN(CCCNC(=O)c2cc3c(s2)-c2ccccc2OC3)CC1	-14	-0.3	14	13	5	5984	4
CCOC(=O)c1ccc(NC(=O)COc2coc(CN3CCc4ccccc43)cc2=O)cc1	-6	1.7	3	0	-3	5313	10
CCN1C(=S)N[C@@H](CCc2ccccc2)[C@H](C(=O)OC)[C@H]1C	0	x	x	x	x	4077	1
COCCNC(=O)C1CC(c2cccc(OC)c2)=NO1 (configuration not stated)	-13	-0.6	-10	-1	-2	11112	-6
Cc1ccc(NC(=O)c2ccc(OC(=O)COc3ccc(Cl)c(C)c3)cc2)cc1	-97	4.0	10	5	5	2111	9
COc1ccc2cc(C#N)c(N3CCN(Cc4nnnn4CCC(C)C)CC3)nc2c1	-7	6.7	6	3	-20	3306	-12
CC1CN(CC(=O)Nc2ccccc2Sc2ccccc2)CC(C)O1 (configuration not stated)	-16	11	8	5	-11	2623	-2
COc1ccc(C(=O)NCc2nnc(SCC(=O)NC3CCCCC3)n2C)cc1	-20	2.3	1	-7	9	3205	-2
Cc1ccc(N2CC(C(=O)Nc3ccc(S(=O)(=O)NCC4CCCO4)cc3)CC2=O)cc1 (configuration not stated)	-7	3.3	-2	13	6	6679	-2
Cc1cccc(-n2nc3c(c2NC(=O)c2cc4ccccc4o2)CS(=O)(=O)C3)c1	5	6.3	7	1	-4	4960	-2
CCOc1cc(CN2CCN(c3cccc(C(F)(F)F)c3)CC2)ccc1O	-38	7.6	7	9	-2	20233*	3
COc1cc(OC)c(C2=NOC(C(=O)NCc3ccc4c(c3)OCO4)C2)cc1Cl (configuration not stated)	-20	-4.2	18	11	12	7354	2
COc1cccc(C2=NOC(C(=O)Nc3cc(C)on3)C2)c1OC (configuration not stated)	-22	-1.0	6	-3	2	4643	4
CC(C)OC(=O)CSc1nc2ccccc2s1	-29	8.2	x	x	6	4152	x
CC1(C)C(=O)Nc2ccccc2N1C(=O)COc1cc(Cl)ccc1Cl	-6	3.7	1	3	-5	u	x
CCC(=NNC(=O)COc1ccccc1OC)C(CC)=NNC(=O)COc1ccccc1OC	x	-1.5	3	4	-3	x	x
